Mtb H37Rv: M. tuberculosis H37Rv growth inhibitors, H37Rv strain (AID 1626). M. tuberculosis H37Rv growth inhibition; higher % means a stronger effect. inhibition, % at 10 µM; hits with a dose series show IC50 in µM. actives 0.95% (n = 220,000);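 active = confirmed in a dose series; inconclusive = inhibition above 80% but not taken into the dose series; inactive = below 80% or under 30% at every dose of the series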;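 also: bacteria incubated seven days before Alamar blue readout; 0% = bacteria only wells and 100% = bacteria with antibiotic wells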
YopH inh: blocks Yersinia enterocolitica YopH tyrosine phosphatase. fluorescence Ex485/Em525. inhibition, %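 (about 10 µM by stock and volumes)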. actives 0.16% (n = 140,000). AID 898;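 active = inhibition of 50% or more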;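 also: controls were vehicle for no effect and minimum signal wells for full effect; inactives centre near -20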
Arbovirus inh: antivirals against arbovirus infection; actives 0.37% (n = 200,000); inhibition, % at 10 µM; arbovirus infection cell-based antiviral screen;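 active = inhibition from about 30%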;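 also: bluetongue infection of BSR cells; cell survival read as ATP light after 72 h; 0% = infected wells without compound and 100% = uninfected wells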
RecA intein inh: Mtb RecA intein splicing inhibition. P9WHJ3. cell-free RecA intein splicing, fluorescence. inhibition, %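 (about 9 µM by stock and volumes)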. actives 0.75% (n = 290,000); in the data active = inhibition above about 30%; inconclusive = no clear call, values can overlap the other calls;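 also: 0% = vehicle wells and 100% = reference inhibitor control wells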
Target sequence (P9WHJ3 whole entry, looked up): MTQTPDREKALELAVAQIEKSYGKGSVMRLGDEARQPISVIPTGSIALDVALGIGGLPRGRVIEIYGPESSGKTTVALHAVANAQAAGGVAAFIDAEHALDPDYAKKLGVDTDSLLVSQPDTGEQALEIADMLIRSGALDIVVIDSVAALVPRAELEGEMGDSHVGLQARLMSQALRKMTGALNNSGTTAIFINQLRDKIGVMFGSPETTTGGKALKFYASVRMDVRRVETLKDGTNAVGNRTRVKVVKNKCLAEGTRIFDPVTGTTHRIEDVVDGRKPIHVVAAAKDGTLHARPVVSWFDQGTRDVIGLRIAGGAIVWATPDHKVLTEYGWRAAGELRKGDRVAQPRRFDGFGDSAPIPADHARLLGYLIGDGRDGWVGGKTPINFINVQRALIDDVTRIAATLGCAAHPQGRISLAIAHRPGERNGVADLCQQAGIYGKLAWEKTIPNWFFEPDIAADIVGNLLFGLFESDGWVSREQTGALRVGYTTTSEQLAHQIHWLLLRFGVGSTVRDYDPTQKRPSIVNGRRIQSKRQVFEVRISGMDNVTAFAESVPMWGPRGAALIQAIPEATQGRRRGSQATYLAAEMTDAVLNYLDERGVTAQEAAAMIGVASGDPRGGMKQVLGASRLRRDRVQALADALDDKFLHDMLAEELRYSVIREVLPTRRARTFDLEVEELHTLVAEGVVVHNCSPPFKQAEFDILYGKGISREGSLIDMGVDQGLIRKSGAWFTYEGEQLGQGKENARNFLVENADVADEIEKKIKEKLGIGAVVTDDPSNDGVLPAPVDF
Mtb bLac sens: beta-lactam sensitization of Mtb H37Rv | inhibition, % at 25 µM | actives 0.27% (n = 330,000) | AID 434955 | M. tuberculosis H37Rv growth with meropenem, percent inhibition; hits of this screen are not shown here;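 active = about 74% or more and at least 40 points above the plate without the antibiotic, then above 30% in a dose series; inconclusive = first-round hits that could not be retested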;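 also: growth measured after seven days incubation then overnight dye step; 0% = bacteria only wells and 100% = bacteria with antibiotic; twin plates without the antibiotic show which effects depend on it; some results filed as inactive read as strong as hits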
Arbovirus inh repeat: also measured in Arbovirus inh; calls as there; inhibition, %; measured here: 10K subset replicate screen; many hits read low in the repeat;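 first of two repeat runs on a subset; 0% = infected and 100% = uninfected wells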
An asterisk follows results filed as active; ? = inconclusive; . = not tested or not shown. A portion of the library; the hit share may differ from the screen's.

SMILES	Mtb H37Rv	YopH inh	Arbovirus inh	RecA intein inh	Mtb bLac sens	others
COc1ccc(OC)c(NC(=O)CN(c2ccc(C)cc2)S(=O)(=O)c2c(C)n[nH]c2C)c1	.	.	.	6.7	21
COc1ccc(NC(=O)Nc2cccnc2)cc1	4%	.	0	0.1	-5
O=C1CNC(=O)/C1=C\N1CCN(C(c2ccccc2)c2ccccc2)CC1	2%	-20	1	0.6	-8	Arbovirus inh repeat=3
COc1ccc(/C=N/Nc2nncc3ccccc23)c(OC)c1	2%	-14	6	-3.8	-1
COc1cccc(NC(=O)C(C)N2C(=O)c3ccccc3S2(=O)=O)c1 (centres undefined)	.	.	.	0.4	-1
C#CCNc1cc(C)nc2ncnn12	.	-4	4	-0.4	?
Cc1ccc(C(CCNC(C)c2cccs2)c2ccco2)cc1 (centres undefined)	1%	.	.	6.0	-1
Cc1ccc(C2Nc3ccccc3NC3=C2C(=O)OC(C)C3)cc1 (centres undefined)	3%	-13	1	-4.0	-4
CC(C)Cc1nc(SCC(=O)N2CCCC2)c2c(=O)n(C)c(=O)n(C)c2n1	.	.	.	-0.7	-7
CC1(C)C(c2ccccc2)=[N+]([O-])CN1O	-10%	-17	4	-5.6	1	Arbovirus inh repeat=7
O=C(COC(=O)c1nn(-c2ccccc2C(F)(F)F)cc1O)c1ccc(OC(F)F)cc1	.	.	.	-1.0	65
O=C(Nc1ccc(Cl)cc1)N1CCN(Cc2ccc3c(c2)OCO3)CC1	9%	.	.	5.9	-4
Cc1ccc(-c2ccnc3nc(Sc4ncc(C(F)(F)F)cc4Cl)nn23)cc1	-2%	-7	11	1.5	0
Nc1nnc(CC(=O)N/N=C/c2ccc(-c3ccccc3)o2)s1	23%	-30	1	1.0	4
O=C(CN1CCOCC1)Nc1scc(-c2ccccc2)c1C(=O)N1CCOCC1	-4%	-20	10	-0.5	-5
CCCNC(=O)OC[C@H]1O[C@H](CCO/N=C/[C@@H](NS(=O)(=O)c2ccc(C)cc2)[C@H](C)/C=C/CC(=O)OC)C=C[C@@H]1Oc1ccc(OC)cc1	.	-21	8	4.4	.
COc1ccc(-c2nn(-c3ccccc3)cc2/C=N/NC(=O)c2cccc(S(=O)(=O)Nc3ccccc3Cl)c2)cc1	14%	-40	-18	1.1	4
CC1(C)Cc2c(sc(NC(=O)c3ccc(C(=O)c4ccccc4)cc3)c2C#N)C(C)(C)N1	.	.	.	4.1	?
CC1(C)OC(=O)C(=CNc2ccccc2F)C(=O)O1	-5%	-24	9	-1.3	-5
CCCNC(=O)NC(=O)COC(=O)CC(NC(N)=O)c1ccc(Cl)cc1 (centres undefined)	-7%	-46	-4	-0.3	-2
CC(=O)N(Cc1ccc(F)cc1)C1=C(NCCc2ccccc2)C(=O)c2ccccc2C1=O	16%	-2	-42	78*	100
COc1ccc(-c2cn3c(C)c(C(=O)N4CCN(c5ccc(F)cc5)CC4)sc3n2)cc1	.	-35	0	-0.3	-6	Arbovirus inh repeat=4
CC(NS(=O)(=O)c1ccc2c(c1)CC(C)N2C(=O)C1CC1)c1ccccc1 (centres undefined)	.	.	.	-0.3	2
O=C(CN1CCN(S(=O)(=O)c2ccccc2)CC1)Nc1ccc2c(c1)CCC2	5%	-19	-21	8.1	-1
CCCCCOC(=O)C1=C(C)NC(=O)NC1c1ccc(OC)cc1 (centres undefined)	.	.	.	6.6	0
Cc1c(C(=O)OC2CCC(C)CC2)[nH]c2c1C(=O)CCC2 (centres undefined)	-17%	-15	-8	-3.0	?	Arbovirus inh repeat=-4
Cc1c(NC(=O)COC(=O)CSc2ccc(C(N)=O)cc2[N+](=O)[O-])c(=O)n(-c2ccccc2)n1C	.	.	.	-3.0	-15
CC(=O)Nc1c(C(=O)NCc2ccccc2)nnn1Cc1ccccc1	2%	-42	2	-0.9	-14
Cc1ccc2nsnc2c1-n1c(C)nc2ccccc2c1=O	0%	-30	1	-0.2	-7
Cc1cc(=O)oc2cc(OCC(=O)NCc3ccccn3)ccc12	-9%	-83	2	3.4	4
COc1ccc(C2CC(=O)c3cnc(N4CCc5ccccc54)nc3C2)c(OC)c1 (centres undefined)	2%	.	-3	-0.4	-11
CNC(=S)Nc1ccc([N+](=O)[O-])c(C)c1	3%	.	0	1.8	-10
Cc1ccc(N(C(=O)Cn2nnc(-c3ccccc3F)n2)C(C(=O)NC2CCCC2)c2ccncc2)cc1 (centres undefined)	.	.	.	-3.9	-4
S=C(NCc1cccs1)Nc1cccc2ccccc12	2%	.	-1	6.6	1
Cc1c(C(=O)NCCSc2ccc(Cl)cc2)cccc1[N+](=O)[O-]	12%	-25	-1	-0.7	70
Cn1cnnc1SCC(=O)N1N=C(c2ccc(Cl)cc2)CC1c1ccco1 (centres undefined)	6%	.	7	0.5	5

Among those listed so far, these contain an NH in an aromatic ring.
SMILES	Mtb H37Rv	YopH inh	Arbovirus inh	RecA intein inh	Mtb bLac sens	others
COc1ccc(OC)c(NC(=O)CN(c2ccc(C)cc2)S(=O)(=O)c2c(C)n[nH]c2C)c1	.	.	.	6.7	21
Cc1c(C(=O)OC2CCC(C)CC2)[nH]c2c1C(=O)CCC2 (centres undefined)	-17%	-15	-8	-3.0	?	Arbovirus inh repeat=-4

Next results follow:
SMILES	Mtb H37Rv	YopH inh	Arbovirus inh	RecA intein inh	Mtb bLac sens	others
Cc1cc(C)c(NC(=S)N2CCN(c3ccc([N+](=O)[O-])cn3)CC2)cc1C	.	.	.	1.1	-7
C#CCOCCOCCOCCNc1nc(N2CCN(C(=O)[C@H](CCC(=O)O)n3cc(C(N)Cc4ccc(O)cc4)nn3)CC2)nc(N2CCN(C(=O)[C@H](CCC(=O)O)n3cc(C(N)[C@H](C)CC)nn3)CC2)n1 (some centres undefined)	.	.	3	0.9	2
CC1(C)CC(N2CCCC2)=CC(=[N+]2CCCCC2)C1	-2%	.	17	2.1	-8
CCCCNC(=O)c1cn(C)c2ccc(S(=O)(=O)N3CC(C)CC(C)C3)cc2c1=O (centres undefined)	.	.	.	-5.6	-11
O=C(O)Cn1cc(C(=S)N2CCOCC2)c2ccccc21	-3%	-18	1	-0.9	.
CCOC(=O)c1nc(C)n(-c2cc(OC)c(Cl)cc2Cl)n1	-6%	.	7	2.1	-3
COc1ccc(-c2csc3nc(-c4ccccc4F)oc(=O)c23)cc1OC	2%	-17	3	-24	7
O=C(COC(=O)C12CC3CC(CC(O)(C3)C1)C2)NCCc1ccc(Cl)cc1	-3%	.	9	1.9	-1
O=C(CN1CCN(c2cccc(Cl)c2)CC1)c1ccc(O)cc1O	.	.	.	-2.2	1
O=C1CSCC(=O)N1Cc1ccc(Cl)c(Cl)c1	.	.	.	2.2	-13
C/C(=N\NC(=O)c1nnn(-c2nonc2N)c1CN(C)C)c1ccco1	.	.	.	1.1	-1
CN(CC(=O)N1CCN(c2ncccn2)CC1)S(=O)(=O)c1ccc(Cl)cc1	-3%	.	2	-0.6	-12
CCOC(=O)c1c(C)[nH]c(C(=O)OCC(=O)Nc2cc(C)ccc2OC)c1C	.	-6	-20	0.5	-2
Cc1nc(NCc2ccco2)[nH]c(=O)c1CCC(C)C	1%	11	-3	0.1	2
Cc1oc2cc3oc(=O)c(CC(=O)N[C@H](C(=O)N[C@@H](C(=O)O)c4ccccc4)C(C)C)c(C)c3cc2c1C	.	.	.	2.6	2
Nc1cc(C(=O)OCC(=O)N2CCOCC2)ccc1Cl	.	.	.	-0.4	-5
CCOC(=O)CSCC(=O)Nc1c(C(=O)C2CC2)oc2ccccc12	5.9µM*	-29	-7	-0.9	98
CCCCCC(=O)Nc1cccc(C2=NOC3(C2)C[C@H](C(N)=O)N(C(=O)COc2ccc(Cl)cc2)C3)c1 (some centres undefined)	11%	.	.	5.2	2
Cc1nn(CC(=O)NNC(=O)c2ccccc2F)c([N+](=O)[O-])c1Br	-8%	.	.	9.6	-7
C=CCNC(=O)C1CC2Cn3c(nc4cc5ccccc5cc43)C2N1C (centres undefined)	-8%	.	.	0.8	0
O=C(NC1CCCCC1)c1ccc(-n2cnnn2)cc1	4%	.	.	-1.9	27
COCCOc1cc(NC(=O)CS(=O)(=O)CC(=O)N(C)C)c(Cl)cc1Cl	2%	.	4	.	-3
Cc1ccc(S(=O)(=O)N2CCOc3ccccc32)c(C)c1NS(C)(=O)=O	.	.	.	-0.4	-9
Cc1ccc(OCCN2CCN(c3ncnc4sc(C)c(C)c34)CC2)cc1	17%	11	4	3.2	99
Cc1ccc(C)c(NC(=S)NCCc2ccc(F)cc2)c1	45%	-19	6	1.4	-1
O=C(NCCCn1ccnc1)c1ccccc1NS(=O)(=O)c1ccc(F)c(F)c1	-7%	2	7	-0.1	-7
O=C(Nn1cnc2ccccc2c1=O)c1ccc([N+](=O)[O-])cc1Cl	-9%	.	-14	2.0	-8
O=C(OCC(=O)N1CCN(C(=O)c2ccco2)CC1)c1cccc(S(=O)(=O)N2CCc3ccccc32)c1	3%	.	19	1.8	-14
CCCn1c(=O)[nH]c(=O)c2c1nc(-c1cc([N+](=O)[O-])ccc1Cl)n2CCOC	.	.	.	1.4	-1
CCOc1ccccc1NS(=O)(=O)c1ccc(Br)s1	5%	8	-8	3.7	-1
Cc1ccc(C2=NOC3(CC(=O)N(c4ccccc4)C3=O)C2)cc1 (centres undefined)	-2%	.	.	-0.6	4
O=C(COC(=O)CN1C(=O)C(=O)c2ccccc21)OCN1C(=O)c2ccccc2C1=O	-1%	-23	3	0.8	-2
C/C(=N\NC(=O)c1c(Cl)c(C)nn1C)c1cccc(NC(=O)COc2ccc(Cl)cc2)c1	6%	-20	4	0.6	-2
O=C(c1ccco1)N1CCN(C(=O)c2ccccc2Oc2ccccc2)CC1	-3%	-23	3	.	4
O=C(NC(=O)c1csnn1)Nc1ccccc1Cl	.	.	.	1.9	?
COc1ccc2c(C)nc(Nc3nc(C)cc(C)n3)nc2c1	-7%	1	9	-0.2	6

A stretch of the results above:
SMILES	Mtb H37Rv	YopH inh	Arbovirus inh	RecA intein inh	Mtb bLac sens	others
O=C(COC(=O)CN1C(=O)C(=O)c2ccccc21)OCN1C(=O)c2ccccc2C1=O	-1%	-23	3	0.8	-2
C/C(=N\NC(=O)c1c(Cl)c(C)nn1C)c1cccc(NC(=O)COc2ccc(Cl)cc2)c1	6%	-20	4	0.6	-2
O=C(c1ccco1)N1CCN(C(=O)c2ccccc2Oc2ccccc2)CC1	-3%	-23	3	.	4
O=C(NC(=O)c1csnn1)Nc1ccccc1Cl	.	.	.	1.9	?
COc1ccc2c(C)nc(Nc3nc(C)cc(C)n3)nc2c1	-7%	1	9	-0.2	6

Additional entries
SMILES	Mtb H37Rv	YopH inh	Arbovirus inh	RecA intein inh	Mtb bLac sens	others
CSc1cc(/C=N/O)c(SC)s1	10%	-49	3	17	20	Arbovirus inh repeat=-2
Cc1cccc(C)c1NC(=O)CN(C)C(=O)C(c1ccccc1)c1ccccc1	10%	-33	-3	0.6	2
Brc1ccc(CNc2cc3c(cc2Br)OCCO3)cc1	-6%	.	19	9.2	0
CCc1nccn1S(=O)(=O)c1ccc(C)c(C)c1	-4%	-39	5	4.9	-4
CCOC(=O)/C=C(/C)N1N=C(c2ccc(OC)cc2)CC1c1cccc([N+](=O)[O-])c1 (centres undefined)	?	-25	-14	-0.8	-6
Cn1c(C(=O)O)c(CC(=O)Nc2ccccc2F)c2ccccc21	-6%	-48	3	3.2	-11
COc1ccc([N+](=O)[O-])cc1NC(=O)c1cc(C)c(C)o1	4%	.	0	-1.3	0
CC(C(=O)Nc1nc2ccccc2s1)n1cc([N+](=O)[O-])cn1 (centres undefined)	-12%	.	9	-0.9	1
COc1ccc(CCNCCC(=O)Nc2c(C)cc(C)cc2C)cc1OC	6%	-11	3	-2.8	-6
COc1ccc(CN(C)CC(=O)NC(C)c2ccccc2)cc1OC (centres undefined)	-5%	.	8	-0.1	-8
CS(=O)(=O)N1CCC2(CC1)OCCN2S(=O)(=O)c1ccccc1	.	.	.	-10	-15
CS(=O)(=O)N(CCc1ccccc1)CC(=O)NCc1cccnc1	3%	-6	2	3.6	-4
COC(=O)c1ccccc1NC(=O)C(=O)NCc1ccncc1	3%	.	0	-3.7	0
COc1ccc(-c2cc(Cl)cc3c(=O)c4ccccc4n(C)c23)cc1F	.	.	.	-32	-5
CCOC(=O)c1cc(OC(=O)c2cccs2)n(-c2ccccc2)n1	-2%	-13	13	.	-7
COc1ccccc1-c1ocnc1C(=O)N1CCN(S(=O)(=O)c2ccc(NC(C)=O)cc2)CC1	.	.	.	-1.8	4
Cc1nnc(SCC2=C(C(=O)O)N3C(=O)C(NC(=O)Cn4nc(C)c(Cl)c4C)C3SC2)s1 (centres undefined)	-10%	.	1	0.6	51
CCN1C(=O)/C(=C2/Sc3ccc(OC)cc3N2C)SC1=Nc1ccc(OC)cc1	2%	.	-1	6.8	-3
CCCCN1C(=S)NC[C@@H]1Cc1ccccc1	-14%	.	-1	-1.4	-19
